VDR inh – Inhibitors of the vitamin D receptor (VDR): qHTS; VDR-SRC2-3 peptide fluorescence polarization, 2 h; Potency, µM, for the others: max response, negative = inhibition, usual class: inhibitors; 0.93% of 400,000 active; active = well fitted inhibition curve with a large enough effect; inconclusive = small, poorly fitted or top-dose-only effect, or another doubt; inactive = no such curve, though single readings can be large or run the other way; note: series mostly up to about 120 µM
Target sequence (P11473 whole entry, looked up): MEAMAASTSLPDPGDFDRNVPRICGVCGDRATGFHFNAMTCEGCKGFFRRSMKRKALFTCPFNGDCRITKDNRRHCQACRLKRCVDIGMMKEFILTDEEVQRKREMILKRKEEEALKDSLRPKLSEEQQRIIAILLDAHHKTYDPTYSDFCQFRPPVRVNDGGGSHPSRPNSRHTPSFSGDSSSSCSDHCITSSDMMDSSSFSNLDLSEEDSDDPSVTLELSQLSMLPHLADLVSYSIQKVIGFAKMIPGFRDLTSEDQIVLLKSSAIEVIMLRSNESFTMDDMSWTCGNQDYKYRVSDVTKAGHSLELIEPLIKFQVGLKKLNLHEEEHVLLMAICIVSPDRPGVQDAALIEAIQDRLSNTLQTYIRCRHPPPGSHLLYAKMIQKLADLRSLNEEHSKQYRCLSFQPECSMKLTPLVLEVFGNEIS
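Two reagent solutions held at 4 deg C in the dark were dispensed, compounds pinned at 23 nl, and the mixture incubated 2 h at room temperature. Read-out: fluorescence polarization of VDR–SRC2-3 peptide binding.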
* = called active by the depositor; ? = inconclusive; & = joins results of further samples. % is set by controls: 0 for no effect and ±100 for the full control effect; potency is the fitted concentration of half-maximal effect. Not all compounds are listed; the hit share may differ from the screen's.

canonical_smiles	VDR inh
CC(C)Oc1ccc(CCN)cc1Cl	0.0%
C=C(C)[C@@H]1[C@H]2OC(=O)[C@H]1[C@]1(O)C[C@H]3O[C@]34C(=O)O[C@H]2[C@]14C	-0.8%
COc1ccc(-n2c(C)nc3ccccc3c2=O)c([N+](=O)[O-])c1	-7.8%
COc1ccc(NC(=O)N2CCCC3(CCN(C(=O)Oc4ccccc4)CC3)C2)cc1	2.9%
CN1CC[C@@]2(c3cccc(O)c3)Cc3nc4ccccc4cc3C[C@H]2C1	1.8%
O=c1[nH]sc2cc(F)ccc12	7.08µM*
O=C(Nc1ccc(F)cc1)N1CC2CC(C1)c1cccc(=O)n1C2 (configuration not stated)	-6.1%
CCN(C(=O)COC(=O)c1cc(C)n(C2CC2)c1C)c1ccccc1	?
CN1[C@H]2CC(=O)C[C@@H]1[C@@H](O)C2	0.1%
CCn1c(O)c(C=NCc2cccs2)c(=O)[nH]c1=O	?
CC1CCN(C(=O)COC(=O)c2cn(C)c3ccccc23)CC1	12.0%
COC(=O)CN1C(=O)CN=C(c2ccccc2Cl)c2cc(Br)ccc21	3.9%
Cc1ccc(O)c(CN2CCN(c3ccccc3)CC2)c1	-7.0%
CCOc1ccc(C2(C#N)CC[N+](C)(C)CC2)cc1	7.2%
Cc1ccc(NC(=O)CN2C(=O)CN=C(c3ccccc3)c3ccccc32)cc1Cl	15.5%
C[C@]12O[C@H](C[C@@]1(O)C(=O)O)n1c3ccccc3c3c4c(c5c6ccccc6n2c5c31)CNC4=O	0.3%
Cc1ccc(CNCCc2ccc(F)cc2)s1	-8.0%
Cc1cccc(C(=O)Nc2ccc3c(c2)CC2(C(=O)N(C)C(=O)N(C)C2=O)C2CCCN32)c1 (configuration not stated)	-8.5%
Cc1ccc(-n2nc(C)c3c2OC(N)=C(C#N)C3c2ccc(F)cc2)cc1 (configuration not stated)	?
NC(=O)OCCSc1nnc(-c2cccc(C(N)=S)c2)o1	-7.4%
Nc1ccc(C2(c3ccc(N)cc3)CCCCC2)cc1	-1.7%
CC(=O)OC1C[C@@]2(C)C(c3ccoc3)C[C@H]3O[C@@]32[C@@]2(C)C(=O)C(O)=C3C(C)(C)C(=O)C=C[C@]3(C)C12 (some centres not stated)	3.98µM*
COc1ccc(OC)c(NP(=O)(Oc2ccc(Cl)cc2)Oc2ccc(Cl)cc2)c1	-11.2%
C[C@@]12CC[C@H](O)C[C@@H]1CC[C@H]1[C@@H]2C[C@@H](O)[C@]2(C)[C@@H](C3=CC(=O)OC3)CC[C@]12O	-8.9%
COC(=O)C1=C(c2cc3ccccc3s2)C[C@@H]2CC[C@H]1N2C(=O)NC1CC1	-12.8%
CC1OC(C[N+](C)(C)C)CC1O (configuration not stated)	8.4%
O=C(/C=C/c1cccs1)c1cc(Cl)ccc1OC(=O)N1CCOCC1	?
CCCCCCCCc1[se]c2ccccc2c1Br	0.4%
C[C@H]1CC[C@@H]2[C@@H](C)[C@H]3[C@H](C[C@H]4[C@@H]5CC=C6C[C@@H](O[C@@H]7O[C@H](CO)[C@H](O)[C@H](O[C@@H]8O[C@H](CO)[C@@H](O)[C@H](O)[C@H]8O)[C@H]7O[C@@H]7O[C@@H](C)[C@H](O)[C@@H](O)[C@H]7O)CC[C@]6(C)[C@H]5CC[C@]34C)N2C1	-0.5%
CCCCC/C=C\C/C=C\C/C=C\C/C=C\CCCC(=O)NC(C)C(=O)O (configuration not stated)	-13.2%

Next section
canonical_smiles	VDR inh
N[C@@H](Cc1c[nH]c2ccccc12)c1nnc(SCc2ccccc2)o1	2.8%
O=C(N[C@H]1CP(=O)(Oc2ccccc2)O[C@H](COCc2ccccc2)[C@H]1O)C(Cl)(Cl)Cl (some centres not stated)	-2.5%
Cc1c(C(=O)c2cccc3ccccc23)c2cccc3c2n1[C@H](CN1CCOCC1)CO3	?
CCCC[N+]12C3CC(C(CC)[C@H]1O)[C@@H]1C(O)C4(C[C@@H]12)c1ccccc1N(C)C34 (some centres not stated)	1.2%
COC(=O)C1=C(c2ccc(S(C)(=O)=O)cc2)C[C@@H]2CC[C@H]1N2C	-13.2%
CC(C)CC12CN3CCN(CC(C3)C1O)C2 (configuration not stated)	-0.8%
O=P(Oc1ccccc1)(Oc1ccccc1)C(Nc1ccccc1)c1ccccc1 (configuration not stated)	-4.0%
Cc1ccc(S(=O)(=O)N(C)CCCC(=O)N2CCN(c3ccccn3)CC2)cc1	-4.9%
CN(C)Cc1ccccc1OC(=O)N(C)C	5.0%
CC1CN1P(=O)(Oc1ccc2ccccc2c1)N1CC1C (configuration not stated)	-4.3%
CCCCn1c(=O)c(C(=O)Nc2cnccn2)c(O)c2ccccc21	10.7%
COCCCn1c(N)c(C(=O)OC(C)COC)c2nc3ccccc3nc21 (configuration not stated)	-12.3%
FC(F)(F)c1ccc(NC2=NCCCS2)cc1	16.6%
CCOC(=O)CCCCCNC(=O)c1c(O)[nH]c(=O)[nH]c1=O	-15.8%
O=c1ccc2cc3ccoc3c(O)c2o1	-17.8%
O=C(Nc1ccccc1-c1ccc(Cl)cc1)c1cccnc1Cl	0.9%
CC(O)(CS(=O)(=O)c1ccc(F)cc1)C(=O)Nc1ccc(C#N)c(C(F)(F)F)c1 (configuration not stated)	9.6%
Cc1ccn2nc(S(=O)(=O)Nc3c(F)cccc3F)nc2n1	3.2%
CC(C)CC(N(C)C)C1(c2ccc(Cl)cc2)CCC1 (configuration not stated)	-10.5%&-18.4%&0.5%
O=c1[nH]c(O)c(/C=C2\C=Nc3ccc(OCc4ccccc4)cc32)c(=O)[nH]1	-28.5%
Cc1cc(C)c(C)c(C(O)(C(=O)O)c2ccccc2)c1C (configuration not stated)	-29.1%
C[C@@]12CC[C@H]3[C@@H](CC[C@]4(O)C[C@H](O)CC[C@@]34C=O)[C@]1(O)CC[C@@H]2C1=CC(=O)OC1	6.8%
CC(C)(O)[C@@H]1C2OC(=O)[C@@H]1[C@]1(O)C[C@H]3O[C@]34C(=O)O[C@H]2[C@]14C	4.3%
CNC(=S)N(C)CCc1cc2c(c(OC)c1/C=C1/C(=O)NC(=O)N(C)C1=O)OCO2	-18.1%
Cc1cc(/C=C2/C(=O)NC(=O)N(Cc3ccco3)C2=O)c(C)n1-c1ccc(C(=O)O)cc1	-22.3%
Cc1cc(C)c2c(c1)NP(=S)(c1ccccc1)N2 (configuration not stated)	?
Cc1nn(-c2ccccc2)c2c1CC1(C(=O)N(C)C(=O)N(C)C1=O)C1CCCCN21 (configuration not stated)	-8.1%
C=CCCC1(CC)C(=O)NC(=S)NC1=O	-6.4%
COC(=O)[C@@H](c1ccccc1)C1CCCCN1 (some centres not stated)	-5.6%
Cc1ccccc1CN1CCN(Cc2ccccc2)CC1	3.5%

3 structures from above, ordered by count of non-hydrogen atoms, ascending.
canonical_smiles	VDR inh
COC(=O)[C@@H](c1ccccc1)C1CCCCN1 (some centres not stated)	-5.6%
Cc1ccccc1CN1CCN(Cc2ccccc2)CC1	3.5%
O=C(N[C@H]1CP(=O)(Oc2ccccc2)O[C@H](COCc2ccccc2)[C@H]1O)C(Cl)(Cl)Cl (some centres not stated)	-2.5%

Carrying on.
Molecule | VDR inh
COc1cccc(C(=O)C2CCCN(C3CCOCC3)C2)c1 (configuration not stated) | -1.7%
c1ccc2c3c(ccc2c1)OCC1CONC31 (configuration not stated) | 0.3%
CCCC12CN3CC(CCC)(CN(C1)C3c1ccccn1)C2=O (configuration not stated) | 1.4%&10.3%
CCOC(=O)c1c(C)n(Cc2ccco2)c2ccc(OC)cc12 | -0.1%
C=C1C(=O)OC2C1CCC(C)C1(O)C=CC(=O)C21C (configuration not stated) | -14.2%
CN1C(=O)NC(=O)/C(=C\C=C\c2ccccc2[N+](=O)[O-])C1=O | 11.2µM*
N[C@H](CCCCCP(=O)(O)O)C(=O)O | -1.3%
COc1ccc(C(C)=O)cc1CC(C(=O)c1ccccc1)N(C)C (configuration not stated) | -10.8%
CN1CCN(c2nc3ccccc3c(=O)n2-c2ccccc2)CC1 | 9.0%
Cc1cccc([C@H](C)c2cnc[nH]2)c1C | 7.3%
COP(=O)(OC)C1(Nc2ccc(C)cc2)CCCCC1 | 20.3%
CCN1C[C@]2(C)CCC(OC)[C@@]34C5C[C@@H]6CC[C@@](O)(C5C(=O)O6)[C@@H](C(O)C23)[C@@H]14 (some centres not stated) | 1.6%
O=C(/C=C/C=C/c1ccccc1)CC1(O)C(=O)Nc2ccccc21 (configuration not stated) | ?
COC(=O)C1=C(c2ccc(F)cc2OCc2ccccc2)C[C@@H]2CC[C@H]1N2C(=O)NCc1ccc(Cl)cc1 | -4.1%
Nc1ccccc1C(=O)OCC(=O)N1CCc2ccccc21 | -10.1%
COc1ccc(C(O)c2cc(OC)ccc2OP(=O)(N(C)C)N(C)C)cc1 (configuration not stated) | 3.2%
O=C(Cc1ccc(N(CCCl)CCCl)cc1)NC(Cc1ccc(Cl)cc1)C(=O)O (configuration not stated) | 7.2%
Cc1ccccc1OCCN=Cc1c(O)n(C)c(=O)n(C)c1=O | -24.6%
OC1(c2ccc(F)cc2)CC2CCC(C1)N2Cc1nnnn1C1CCCC1 (configuration not stated) | 10.2%
CCCC(C)C1(CC)C(=O)NC(=Nc2ccccc2)NC1=O (configuration not stated) | -15.3%
CN(C)CCN(CC1CCCN(Cc2ccccc2F)C1)C(=O)Cc1ccc(F)c(F)c1 (configuration not stated) | 4.0%
Cc1cc(O)c(CN2CC=C(c3ccccc3)CC2)cc1C(C)C | 25.4%
O=C1CCCC2=C1C(c1cccnc1)Nc1ccccc1N2 (configuration not stated) | -5.1%
Cc1cc(C)n2c(Br)c(CN3CC4CC(C3)c3cccc(=O)n3C4)nc2n1 (configuration not stated) | -4.3%
CC(C)=CCC[C@]1(C)[C@@H](CC=C(C)C)C[C@@]2(CC=C(C)C)C(=O)[C@]1(C(=O)C(C)C)C(=O)C(CC=C(C)C)=C2O | ?

More structures
Molecule | VDR inh
CCC(=NCCC(c1ccccc1)c1ccccc1)c1c(O)n(C)c(=O)n(C)c1=O | -20.6%
CN(C)CC/C=C1/c2ccccc2Sc2ccc(Cl)cc21 | -3.7%&-15.9%&-1.2%
O=C(c1ccco1)c1cn(Cc2ccccc2Cl)c2ccccc12 | 2.5%
CC(=Nc1c(C)n(C)n(-c2ccccc2)c1=O)c1c(O)n(Cc2ccccc2)c(=O)[nH]c1=O | -8.6%
COc1cc(-c2ccc(N)c(OC)c2)ccc1N | -12.9%
COc1ccc(-n2c(/C=C3/C(=O)Nc4ccccc43)nc3ccccc3c2=O)cc1 | -3.5%
C[C@@H]1CC2(CCCC[N+]2(C)C)C[C@H]1C | -11.0%
COCCCN1CCN(c2nnc3n2-c2sc(Br)cc2C(c2ccccc2Cl)=NC3)CC1 | 8.7%
COc1ccc(-c2nc3ccccc3c(=O)n2-c2cccnc2)cc1 | 5.8%
CCn1cc(CN2CCCC(C(=O)c3cccc(OC)c3)C2)c(C)n1 (configuration not stated) | -3.0%
C[C@]12CCC(=O)C=C1CC[C@@H]1[C@@H]2C(=O)C[C@]2(C)C(=O)CC[C@@H]12 | 2.4%
CCCNS(=O)(=O)c1ccc(OCC(=O)N2CCN(Cc3ccccc3)CC2)cc1 | -12.9%
CCn1c(=O)n(CC)c2cc([N+](=O)[O-])c(N3CCNCC3)cc21 | -5.7%
CC(C)CN1CC2(CCN(C(=O)Oc3ccccc3)CC2)C1 | 1.0%
COCc1cc(OC(=O)N(C)C)nc(-c2ccccc2)n1 | -13.8%
C=CCn1c(O)c(/C(C)=N/N2CCCCC2)c(=O)[nH]c1=O | -13.8%
CN1C2CCC1CC(OC(=O)c1ccc(Cl)cc1)C2 (configuration not stated) | -6.9%
C=CCOC(=O)C1=C(C)OC(N)=C(C#N)C12C(=O)N(CN1CCOCC1)c1ccccc12 (configuration not stated) | 2.1%
CCN(CC)Cc1c[nH]c2ccccc12 | -14.8%
CC(C)CCNC(=O)CNC(=O)[C@@H](C)NC(=O)[C@@H](N)Cc1ccc(O)cc1 | -1.5%
COc1cc2c(ccc3c4cc(OC)c(OC)cc4c[n+](C)c23)cc1O | -5.2%
Cc1ccc(S(=O)(=O)NCCC(=O)Nc2ccc(Cl)cc2C(=O)c2ccccc2)cc1 | -15.4%
Cc1ccc(OCC(=O)Nc2ccc(Cl)cc2C(=O)c2ccccc2)c(Br)c1 | -5.1%
COc1cc(OC)c(OC)cc1CNCCc1ccc(OC)c(OC)c1 | 6.6%
Cc1ccc(N2Cc3ccccc3C2=N)cc1[N+](=O)[O-] | -1.4%

Continuation:
Molecule | VDR inh
O=C(NC1CCCCC1)c1cn(CCN2CCOCC2)c2cc(Cl)ccc2c1=O | -14.3%
C[C@]12CC[C@H]3[C@@H](CC[C@@]45O[C@@H]4C(=O)C(C#N)C[C@]35C)[C@@H]1CC[C@@H]2O (some centres not stated) | ?
O=C(Nc1ccccc1)N1CC[C@@]2(CCCNC2)C1 | -21.6%
CCOC(C[n+]1c(-c2ccccc2)cc(C)cc1-c1ccccc1)OCC | -7.2%
COc1ccc(C2C(C(=O)N3CCC4(CC3)OCCO4)CC(=O)N2c2ccc(OC)cc2)cc1 (configuration not stated) | -8.5%

Structures from the list above that contain an aryl thioether with sulfur outside any ring, in the order listed:
Molecule | VDR inh
NC(=O)OCCSc1nnc(-c2cccc(C(N)=S)c2)o1 | -7.4%
N[C@@H](Cc1c[nH]c2ccccc12)c1nnc(SCc2ccccc2)o1 | 2.8%

Given field by field: part of the list above.
Cc1cc(C)c(C)c(C(O)(C(=O)O)c2ccccc2)c1C (configuration not stated)
  VDR inh = -29.1%
C[C@@]12CC[C@H]3[C@@H](CC[C@]4(O)C[C@H](O)CC[C@@]34C=O)[C@]1(O)CC[C@@H]2C1=CC(=O)OC1
  VDR inh = 6.8%
CC(C)(O)[C@@H]1C2OC(=O)[C@@H]1[C@]1(O)C[C@H]3O[C@]34C(=O)O[C@H]2[C@]14C
  VDR inh = 4.3%
CNC(=S)N(C)CCc1cc2c(c(OC)c1/C=C1/C(=O)NC(=O)N(C)C1=O)OCO2
  VDR inh = -18.1%
